TAR Tat displ: TAR RNA-Tat peptide displacers, HIV-1, primary screen, biochemical, FRET, FAM/TAMRA-labeled Tat | 100,000 tested, 0.6% active | HIV-1 TAR RNA, Tat peptide displacement FRET; stronger effect = higher value | z-score (no concentration beside the values);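 note: score is relative to mean and SD of negative controls; some compounds called inactive have numbers as strong as hits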
CDC25B CDK2 inh: primary biochemical HTRF screen for blockers of M-phase inducer phosphatase 2 binding to CDK2/cyclin A | P30305+P24941 | HTRF CDC25B-CDK2/CyclinA binding, anti-His/anti-Flag; stronger effect = higher value | z-score (test concentration not listed) | 94,000 tested, 0.72% active | AID 1259370, 2018;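 note: score is relative to mean and SD of negative controls; strong numbers were not always called active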
Numbers without * were called inactive; . = no result given.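 Rule for the calls: active = z-score from 3 up in half or more of its runs; inactive = the rest.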

A first look, seven compounds:
Order of results – TAR Tat displ | CDC25B CDK2 inh
- COc1ccccc1NC(=O)N1c2ccccc2NC2=C(C(=O)CC(C)(C)C2)C1c1cccs1 (configuration not stated)
→ 0.78 | .
- Cn1c(=O)[nH]c(=O)c2cnc(-c3ccc(Cl)cc3)nc21
→ 1.48 | -0.25
- CC(C)(Cc1nc2ccccc2[nH]1)c1nc2ccccc2[nH]1
→ -2.09 | -0.89
- O=C1c2cccnc2C(Nc2ccc3c(c2)OCO3)N1Cc1cccs1 (configuration not stated)
→ 0.27 | .
- COc1ccc(S(=O)(=O)Nc2ccccc2Sc2nc3c(c(=O)n(C)c(=O)n3C)n2C)cc1
→ 0.23 | 0.75
- O=C(Nc1ccc(-c2nc3ccccc3o2)c(O)c1)c1ccc(-c2cccc(Cl)c2)o1
→ . | -5.18
- O=C(NCC1CCCO1)c1c[nH]c2ccc(S(=O)(=O)N3CCC4(CC3)OCCO4)cc2c1=O (configuration not stated)
→ . | -3.15

The listing, from the start:
Order of results – TAR Tat displ | CDC25B CDK2 inh
- COc1ccccc1NC(=O)N1c2ccccc2NC2=C(C(=O)CC(C)(C)C2)C1c1cccs1 (configuration not stated)
→ 0.78 | .
- Cn1c(=O)[nH]c(=O)c2cnc(-c3ccc(Cl)cc3)nc21
→ 1.48 | -0.25
- CC(C)(Cc1nc2ccccc2[nH]1)c1nc2ccccc2[nH]1
→ -2.09 | -0.89
- O=C1c2cccnc2C(Nc2ccc3c(c2)OCO3)N1Cc1cccs1 (configuration not stated)
→ 0.27 | .
- COc1ccc(S(=O)(=O)Nc2ccccc2Sc2nc3c(c(=O)n(C)c(=O)n3C)n2C)cc1
→ 0.23 | 0.75
- O=C(Nc1ccc(-c2nc3ccccc3o2)c(O)c1)c1ccc(-c2cccc(Cl)c2)o1
→ . | -5.18
- O=C(NCC1CCCO1)c1c[nH]c2ccc(S(=O)(=O)N3CCC4(CC3)OCCO4)cc2c1=O (configuration not stated)
→ . | -3.15
- COc1cccc(-c2ccc(-c3noc(-c4ccccc4F)n3)c(OC)n2)c1
→ 0.6 | 1.47
- Cc1cc(NC(=O)Nc2cccc(Cl)c2)no1
→ 2.29 | -0.53
- O=C(c1cnc(N2CCOCC2)nc1)N1CCCC1
→ 0.94 | .
- Oc1sc(-c2ccccc2)cc1C=Nc1ccccc1Cl
→ -6.55 | -2.6
- N#CC1=C2SCN(C3CCCC3)CN2C(=O)CC1c1cccs1 (configuration not stated)
→ 1.32 | 5.9*
- CCOc1ccc(Cl)cc1S(=O)(=O)NCc1ccccn1
→ 1.01 | -0.18
- C(=N\N1CCN(Cc2cccc3ccccc23)CC1)/c1c2ccccc2cc2ccccc12
→ . | -4.31
- N#Cc1cc2c(nc1SCc1ccccc1)CCC2
→ -0.08 | -0.97
- CCOC(=O)Cc1csc(NC(=O)CCC2CCCCC2)n1
→ 2.2 | -0.07
- O=C(O)c1cc(=O)c2ccc(Cl)cc2[nH]1
→ -0.14 | .
- O=S(=O)(/N=C(\N/N=C/c1ccccc1O)N1CCCC1)c1ccccc1
→ . | -2.05
- Nc1ccc(C(=O)c2ccccc2C(=O)O)cc1[N+](=O)[O-]
→ . | -0.59
- COc1ccc(Oc2cccc(Cl)c2C#N)cc1
→ . | -0.44
- Cc1ccc(S(=O)(=O)NCCc2sc(-c3cccnc3)nc2C)cc1
→ 0.8 | .
- CN=C1NS(=O)(=O)C(c2ccc(C(C)C)cc2)=C1C
→ -1.28 | -0.25
- CCOc1ccc(Nc2nc(N)c([N+](=O)[O-])c(OC)n2)cc1
→ 0.39 | .
- Cc1ccc(NC(=O)c2oc3ccccc3c2NC(=O)c2nn(-c3ccc(C)cc3)ccc2=O)cc1
→ 1.02 | 2.16
- CCOC(=O)Cc1c(C)nc2cc(C)[nH]n2c1=O
→ 0.89 | -0.15
- Cc1ccc2c(=O)cc(C(=O)Nc3nnc(C)s3)oc2c1
→ -0.39 | -2.69
- CCOc1ccccc1N1CCN(c2ncnc3[nH]ccc23)CC1
→ -0.76 | -0.12
- Cc1cccc(C(=O)NCN2CCN(c3ccccc3C#N)CC2)c1
→ . | -1.48
- O=C(Nc1ccc(Br)cc1)C1CCn2c(nc3ccccc32)C1 (configuration not stated)
→ 0 | .
- Cc1ccc2nc(-c3cccnc3)c(Nc3ccccc3)n2c1
→ . | -2.69
- CCOc1ccc(-c2ccc(NS(=O)(=O)c3ccc(F)cc3)cc2)nn1
→ 0.66 | .
- CC1CCc2c(cnc3c(C(=O)NCCc4cccs4)cnn23)C1 (configuration not stated)
→ -1.45 | .
- c1cc(-c2nn[nH]n2)ccc1CN1CCCCC1
→ 1.26 | 0
- CCc1nn2c(=O)cc(CS(=O)(=O)c3nc(-c4ccccc4)n[nH]3)nc2s1
→ 1.02 | .
- CC(C)(C)c1ccc(-c2nnn(-c3ccc(F)cc3)n2)cc1
→ -0.54 | 0.16
- Cc1cc2c(cc3c(SCc4nc(-c5ccccc5F)oc4C)nnc(C)n32)o1
→ 1.86 | .
- CC(CCc1ccccc1)NS(=O)(=O)c1cc2c3c(c1)CC(=O)N3CCC2 (configuration not stated)
→ 2.26 | .
- COC(=O)c1cc2cc(Cl)ccc2nc1OC
→ . | -2.36
- CC(=O)Oc1cc2c(c(C)c1OC(C)=O)CC1OC13[C@@]2(C)CC[C@@]1(C)C2C[C@](C)(C(=O)O)CC[C@]2(C)CC[C@]31C (some centres not stated)
→ 3.11 | .
- Cc1cccn2c(=O)cc(COc3ccccc3NS(=O)(=O)c3ccccc3)nc12
→ 0.75 | .
- O=C(Cn1c(=O)n(Cc2ccco2)c(=O)c2oc3ccccc3c21)Nc1ccc(F)c(Cl)c1
→ 0.82 | .
- COc1ccc(-c2noc(-c3cc(OC)c(OC)c(OC)c3)n2)cc1
→ . | -1.52
- CC1Cc2ccccc2N1c1c(-c2ccccc2)c(=O)c1=O (configuration not stated)
→ 2.97 | .
- COCCn1c2c(c(=O)[nH]c1=O)C(c1ccc(OC)cc1)C1=C(N2)c2ccccc2C1=O (configuration not stated)
→ 0.37 | -1.19
- Cc1nc(CC(=O)O)c(C)s1
→ . | -1.31
- COc1cc2ccccc2cc1C(=O)Nc1nc2ccccc2s1
→ 1.96 | -1.99
- CC(C)C(NS(=O)(=O)c1ccc2c(c1)CCCC(=O)N2)C(=O)NC1CCCCC1 (configuration not stated)
→ 0.82 | .
- CCN1CCCC1CNC(=O)Cn1cnc2c(nc3n2CCCCC3)c1=O (configuration not stated)
→ -1.12 | .
- O=[N+]([O-])/C(=C\c1ccccc1)c1ccccc1
→ . | -1.07
- O=C(Nc1ccccc1)OCc1nccn1Cc1ccc(Cl)cc1
→ . | -0.11

Carrying on:
Order of results – TAR Tat displ | CDC25B CDK2 inh
- CCCSc1ncc(Cl)c(C(=O)Nc2ccc(Br)cc2)n1
→ -0.41 | 0.38
- C#CCn1c(C2CC(=O)N(c3cccc(Cl)c3)C2)nc2ccccc21 (configuration not stated)
→ -1.17 | -3.09
- COCCCNC(=O)Cn1cc2c(n1)CCC(C)C2 (configuration not stated)
→ . | -1.06
- COCCNC(=O)C1CCN(c2ncnc3c2nc2n3CCCCC2)CC1
→ -0.54 | .
- Cc1ncc(-c2ccc(C)c(S(=O)(=O)Nc3cccc(C)c3C)c2)o1
→ 0.73 | .
- CN(C)c1ccc(/C=N/NC(=O)c2ccncc2)cc1
→ . | -0.03
- COc1cc2ccc(=O)oc2c(OC)c1OC
→ 3.43 | .
- O=C(C1CCCN1S(=O)(=O)c1ccc(-c2ccc(=O)[nH]n2)s1)N1CCc2ccccc21 (configuration not stated)
→ -0.57 | .
- COC(=O)CNC(=O)Cn1cnc2sc(C)c(S(=O)(=O)N3CCC(C)CC3)c2c1=O
→ 2.73 | -1.89
- Cc1cc(C)cc(NS(=O)(=O)c2cc3[nH]c4c(c3cc2C)C(=O)CCC4)c1
→ 0.63 | .
- Cc1nc(N2CCCC(C(=O)O)C2)c2c(C)c(C)oc2n1 (configuration not stated)
→ 1.47 | -0.45
- O=c1[nH]c2ccc([N+](=O)[O-])cc2s1
→ . | -1.23
- CCN(CC)CCCNC(=O)C1CCCN(c2nn3c(=O)cc(C)nc3s2)C1 (configuration not stated)
→ -0.01 | -1.75
- CC(=O)Nc1nc(CC(C)C)cc2c1c(=O)oc1ccccc12
→ . | -1.09
- Cc1ccc(OCc2nn3c(C(C)(C)C)nnc3s2)cc1
→ -0.64 | -1.3
- Cc1ccccc1N1C(=O)N(c2cccc(Br)c2)C2CS(=O)(=O)CC21 (configuration not stated)
→ -0.23 | -2.4
- COC(=O)c1cccc(Nc2nc(-c3cccnc3)nc3ccccc23)c1
→ -1.06 | -0.06
- CC1CCCCN1C(=O)c1cc2c(s1)-c1ccc(Cl)cc1S(=O)(=O)C2 (configuration not stated)
→ 1.57 | -0.62
- CC(C)OC(=O)CSC1=C(C#N)C(c2ccccc2Cl)CC(=O)N1 (configuration not stated)
→ 2.1 | -1.85
- Nc1ccc(CC(CC(=O)O)C(=O)O)cc1 (configuration not stated)
→ 1.13 | .
- CN1CCN(C)C(C(=O)NN)C1 (configuration not stated)
→ . | -1.69
- Cc1ccc(OCc2ccc(-c3nc(C#N)c(N4CCN(C)CC4)o3)o2)cc1
→ -0.46 | -0.92
- O=C(Cn1c(=O)c(C(F)(F)F)nc2ccccc21)N1CCc2ccccc21
→ . | -4.41
- C=CCN/C=C(\C#N)S(=O)(=O)c1ccc(Cl)cc1
→ . | 1.07
- CCOC(=O)c1c[nH]c2ccc(F)cc2c1=O
→ 0.01 | 0.92
- COc1cc2c(c([N+](=O)[O-])c1)NC(c1ccccc1)CC2c1ccccc1 (configuration not stated)
→ . | -2.56
- Cc1ccc(-c2nnc3n2N=C(c2c[nH]c4ccccc24)CS3)cc1
→ -6.44 | 6.13
- COc1ccc(-c2nnc(SCc3cc(=O)c4c(C)ccc(C)c4[nH]3)n2C)cc1
→ 0.49 | .
- O=C(CCCCCn1c(=S)[nH]c2ccc(Br)cc2c1=O)NCc1ccco1
→ . | -0.29
- Cc1ccc2c(NC(=O)C3CC3)cccc2n1
→ . | 1.56
- Cc1ccc(OCc2nc(-c3ccc(Br)cc3)no2)cc1
→ -0.15 | -0.99
- Cc1ccc(C2C3=C(CCCC3=O)Nc3nc(SCc4ccc(F)cc4)nn32)cc1 (configuration not stated)
→ 0.17 | -1.7
- O=C(NC1CCCc2ccccc21)C1CCN(C(=O)N2CCOc3ccc(Cl)cc32)CC1 (configuration not stated)
→ 0.86 | .
- Cn1c(O)c(C=NCC(=O)NC(Cc2c[nH]c3ccccc23)C(=O)O)c(=O)n(C)c1=O (configuration not stated)
→ . | -2.75
- Cc1cc(C)cc(NC(=O)NC2CCN(c3nc(C)cc(C)n3)CC2)c1
→ 0.48 | -1.46
- Cc1ccc(N2C(=O)c3oc4ccccc4c(=O)c3C2c2ccc(O)cc2)nc1 (configuration not stated)
→ 0.88 | -0.93
- O=C(c1cnc2c(c1)COc1ccccc1-2)c1ccccc1O
→ -1.84 | -1.57
- COc1ccccc1N1CCN(S(=O)(=O)c2ccc3c4c2CC(=O)N4CC(C)S3)CC1 (configuration not stated)
→ 0.28 | .
- CCOC(=O)C1CCCN(c2cc(N3CCCC3)c3noc4c3c2C(=O)c2ccccc2-4)C1 (configuration not stated)
→ -2.23 | 2.28
- Cc1cc2c3c([nH]c2cc1S(=O)(=O)NCCC(C)N1CCOCC1)CC(C)(C)CC3=O (configuration not stated)
→ 0.13 | .
- Fc1ccc(-c2noc3ncnc(NCCCN4CCCc5ccccc54)c23)cc1
→ -0.79 | .
- O=C(/C=C/C(=O)Nc1ccc(F)cc1F)Nc1ccc(F)cc1F
→ . | 0.62
- COc1cc(CCC(=O)NNC(=O)C(F)(F)F)cc(OC)c1OC
→ . | 0.62
- CC(=O)N1CCSc2ccc(S(=O)(=O)Nc3ccc(Br)c(C)c3)cc21
→ 3.12 | .
- O=C(NC1CCCC1)C1CCN(C(=O)c2cc3sccc3n2Cc2ccc(F)cc2)CC1
→ . | -3.39
- CCOc1ccccc1-c1nn2c(-c3ccccc3Br)nnc2s1
→ 1.6 | 1.7
- Cc1nnc(N2C(=O)C(=O)/C(=C(/O)c3ccc(F)cc3)C2c2ccc(F)cc2)s1 (configuration not stated)
→ . | -0.97
- Cc1ccc(C(=O)C2C(c3cccc(Oc4ccccc4)c3)NC(=O)NC2(O)C(F)(F)F)cc1 (configuration not stated)
→ . | -3.17
- Cn1cnc2c(=O)oc3ccc(S(=O)(=O)NCCc4ccccc4)cc3c21
→ -0.48 | -4.1
- COc1ccc(S(=O)(=O)Nc2ccc(Cl)c(N3CCCS3(=O)=O)c2)cc1C
→ 0.88 | .

Carrying on:
Order of results – TAR Tat displ | CDC25B CDK2 inh
- COc1cc(C2C3=C(CC(C)(C)CC3=O)Nc3[nH]c(=O)[nH]c(=O)c32)cc(Br)c1O (configuration not stated)
→ . | -4.32
- COc1ccccc1Nc1snc2sc(C(=O)c3ccc(C)cc3)c(N)c12
→ . | -1.17
- O=C(Nc1ccc(Cl)cc1)N1Cc2ccccc2Sc2ncccc21
→ 0.26 | -0.74
- CCSCCOC(=O)C1=C(C)NC2=C(C(=O)CC(c3ccccc3Cl)C2)C1c1cccc(O)c1 (configuration not stated)
→ 1.57 | 0.36
- O=C1C[C@@H](c2ccccc2)Oc2cc(O)cc(O)c21
→ 1.88 | .
- COC(=O)c1ccc2c(c1)NC(=O)CO2
→ 1.48 | .
- CCN1C(=O)c2ccccc2Sc2ccc(NC(=O)N3CCc4ccccc43)cc21
→ -0.02 | -0.55
- CC(C)CC(Nc1ncnc2sc3c(c12)CCC3)C(=O)O (configuration not stated)
→ 0.19 | -0.18

A draw from above in order of length of the SMILES, high to low:
Order of results – TAR Tat displ | CDC25B CDK2 inh
- CCN1C(=O)c2ccccc2Sc2ccc(NC(=O)N3CCc4ccccc43)cc21
→ -0.02 | -0.55
- O=C1C[C@@H](c2ccccc2)Oc2cc(O)cc(O)c21
→ 1.88 | .
- COC(=O)c1ccc2c(c1)NC(=O)CO2
→ 1.48 | .

Screens: PubChem, Center for Chemical Genomics, University of Michigan
